UCH37 inh: inhibitors of human deubiquitinating enzyme UCH37; Q9Y5K5; purified proteasome/UCH37, Ub-AMC cleavage fluorescence; inhibition, % (no concentration beside the values); 0.33% of 330,000 active;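 active = mean of two replicates above 20%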;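 note: 0% = compound-free wells with enzyme and 100% = wells lacking proteasome; stock transfer was 100 nL into about 20 µL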
Target sequence (Q9Y5K5 whole entry, looked up): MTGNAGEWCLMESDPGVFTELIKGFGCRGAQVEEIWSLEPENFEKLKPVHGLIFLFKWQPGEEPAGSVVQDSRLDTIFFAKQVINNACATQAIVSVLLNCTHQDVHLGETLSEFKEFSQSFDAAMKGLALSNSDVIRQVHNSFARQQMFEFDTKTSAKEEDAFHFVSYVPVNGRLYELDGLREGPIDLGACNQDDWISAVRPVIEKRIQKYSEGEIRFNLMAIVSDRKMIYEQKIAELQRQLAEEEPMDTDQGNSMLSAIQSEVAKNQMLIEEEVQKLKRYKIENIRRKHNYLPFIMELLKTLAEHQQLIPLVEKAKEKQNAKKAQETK
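system = Proteasome-associated human UCH37 deubiquitinase | amount = 0.15 nM proteasome as dispensed | medium = pH 7.4 Tris-HCl (50 mM) with ovalbumin, ATP-MgCl2, DTT | incubation = 30 min preincubation with enzyme, 25 min cleavage at room temperature | detection = AMC fluorescence 355/460 nm | read-out basis = percent inhibition | controls = no-proteasome and no-compound wells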
FGF22 binding: FGF22 (human) thermal shift binding | Q9HCT0 | recombinant FGF22 thermal shift, SYPRO orange fluorescence; percent of sucrose octasulfate shift, DMSO zero | calls only at 9.99 µM | 1.5% of 340,000 active;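 active = melting point raised past a set limit in the mean and every replicate; inconclusive = no clear call; three in four hits are not shown here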
Target sequence (Q9HCT0 whole entry, looked up): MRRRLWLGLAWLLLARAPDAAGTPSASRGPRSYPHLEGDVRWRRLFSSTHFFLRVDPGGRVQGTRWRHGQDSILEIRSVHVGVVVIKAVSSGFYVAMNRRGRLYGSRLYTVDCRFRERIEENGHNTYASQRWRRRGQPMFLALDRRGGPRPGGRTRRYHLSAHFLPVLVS
Vif A3G: inhibitors of Vif binding to APOBEC3G peptide, primary screen, biochemical, TR-FRET, GST-Vif 1-94, biotin-A3G peptide, dose response retest (AID 1117319). 0.57% of 260,000 active. inhibition, %, or IC50 in µM where a hit was titrated. TR-FRET GST-Vif / biotin-A3G peptide binding; higher % means a stronger effect; test concentration not given here; strong numbers were not always called active;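 active = above the screen mean plus three standard deviations and confirmed in dose response; inconclusive = results disagree or hit not tested in dose response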;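 note: Vif residues 1-94 fused to GST binding biotinylated APOBEC3G peptide 110-148; 0% = full assay without inhibitor and 100% = GST in place of GST-Vif; retest series ran down from 100 µM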
RanGTP-Imp inh: inhibitors of RanGTP-importin-beta interaction, primary screen, biochemical, FRET, CFP-Ran, YFP-importin-beta, homogeneous; cell-free CFP-Ran/YFP-importin-beta FRET ratio; inhibition, % (concentration not given with the values); 1.1% of 300,000 active; AID 2216;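 active = most replicates above 15%; inconclusive = exactly half above 15%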;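 note: 0% = DMSO wells and 100% = Ran loaded with GDP instead of GTP; wells of about 40 µL received 100 nL stock; the first replicate is given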
HNF4A DNA FP: change in binding of human HNF4 alpha to DNA; 0.3% of 360,000 active; P41235; HNF4a-FITC DNA binding, fluorescence polarization, 1 h; activity change, % at 10 µM; AID 1224865; in the data active = activity change above about 30%, passing the limit was not always enough;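 note: controls were the assay level and a saturating level of protein; the project sought stronger binding though the title names inhibitors; some compounds called inactive have numbers as strong as hits; positive values seem to mean higher polarization but the record does not say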
MLL AF4-AF9 inh: inhibitors of human MLL-AF4/AF9 interaction; P42568; inhibition, % at 10 µM; AlphaScreen, biotin-AF4 peptide binding to FLAG-AF9; 0.47% of 350,000 active;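 active = every replicate reaching a set inhibition limit, whatever the replicate mean, cut at about 25% in these data; inconclusive = mean inhibition reaches that limit but some replicates miss it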;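 note: 0% = plate neutral control median and 100% = total signal loss; the record names both 10 and 1 µM as test concentration; the first replicate is given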
Target sequence (P42568 whole entry, looked up): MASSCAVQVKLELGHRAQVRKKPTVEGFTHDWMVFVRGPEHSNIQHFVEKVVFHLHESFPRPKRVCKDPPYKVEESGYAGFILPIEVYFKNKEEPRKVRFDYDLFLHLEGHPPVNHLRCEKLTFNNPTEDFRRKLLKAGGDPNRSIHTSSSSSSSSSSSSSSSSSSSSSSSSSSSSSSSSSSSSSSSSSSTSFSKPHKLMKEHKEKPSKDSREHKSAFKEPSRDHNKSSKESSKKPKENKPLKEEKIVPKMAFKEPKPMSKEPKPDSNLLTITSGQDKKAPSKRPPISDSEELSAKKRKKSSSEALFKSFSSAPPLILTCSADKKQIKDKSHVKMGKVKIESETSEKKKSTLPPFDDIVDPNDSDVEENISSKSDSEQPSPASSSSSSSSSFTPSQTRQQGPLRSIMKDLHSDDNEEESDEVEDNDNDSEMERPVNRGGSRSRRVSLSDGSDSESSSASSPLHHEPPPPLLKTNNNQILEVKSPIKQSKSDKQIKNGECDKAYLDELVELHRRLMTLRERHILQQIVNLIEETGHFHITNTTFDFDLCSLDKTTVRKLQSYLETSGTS
E coli growth: inhibitors of Escherichia coli growth | OD600, 23 h; stronger effect = lower value | OD600 absorbance (test concentration not listed) | 0.21% of 330,000 active | AID 1053175;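 active = OD600 absorbance below the run mean of sample wells minus 3.6 SD, in any replicate, cut at about 0.56 in these data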;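 note: stock transfer was 300 nL into about 60 µL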
Numbers without * were called inactive; i = inactive; ? = inconclusive; . = no result given; + = active, no number; & = joins results of further samples.

SMILES	UCH37 inh	FGF22 binding	Vif A3G	RanGTP-Imp inh	HNF4A DNA FP	MLL AF4-AF9 inh	E coli growth
O=C(Nc1nc(-c2ccc(F)c(F)c2)cs1)c1cc([N+](=O)[O-])ccc1N1CCOCC1	6.5	.	-2%	?	3.0	.	0.66
O=S(=O)(O)c1cc(O)c2cc(Nc3ccccc3)ccc2c1	-91	i	2.3µM*	.	-60	3.1	0.67
CC(=O)N(Cc1ccco1)C1(C(=O)NC2CCCCC2)CCCCC1	2.4	.	?	1.1	-2.1	.	0.74
Cc1ccc(S(=O)(=O)N(C)C)cc1NC(=O)CSc1nnc(C2CC2)n1C1CC1	-3.7	i	.	.	-0.1	-0.3	0.65
CN1CCC(C(=O)C(=O)O)C1=O (stereo not drawn)	.	i	-1%	.	1.1	-2.3	.
NS(=O)(=O)c1ccc(NC(=O)CN2CCCCC2)cc1	5.0	.	3%	5.1	2.5	.	0.71
CSc1nccc(N/N=C/c2ccccc2)n1	.	i	-4%	0.3	5.2	-2.4	.
COc1ccc(C(c2c(C)n(C)n(-c3ccccc3)c2=O)c2c(C)n(C)n(-c3ccccc3)c2=O)c(OC)c1OC	5.8	i	.	1.7	-2.8	-8.0	0.64
CCOC(=O)N1CCN(S(=O)(=O)c2ccc(C(=O)Nc3nc4ccccc4s3)cc2)CC1	-247	i	-24%	-3.6	-3.7	-33	0.65
Cc1ccccc1C(=O)NC(=S)N(C)C1CCCCC1	0.1	i	.	1.8	0.8	1.9	0.71
COc1cc(NC(=O)NCCN2CCN(c3ccc(Cl)cc3)CC2)ccc1C	3.1	.	70%	2.4	3.0	.	0.67
Cc1c(S(=O)(=O)NCc2ccccc2)c(=O)n(C)c(=O)n1C	1.4	i	.	4.0	-2.3	-5.9	0.7
Cc1cccc(Cn2c(N3CCN(c4ccccc4)CC3)nc3c2c(=O)n(C)c(=O)n3C)c1	1.9	.	14%	-4.0	-0.7	.	0.66
Cc1cc([N+](=O)[O-])cc2c1NCC1CC=CC21 (stereo not drawn)	3.2	i	.	3.9	2.6	-5.9	0.65
O=C(NCCCN1CCCC1=O)c1ccccc1NS(=O)(=O)c1ccc(F)cc1	-7.5	.	1%&-5%	0.5	0.8	.	0.74
COc1ccc(C(=O)C2CCCN(C(=O)/C=C/c3ccccn3)C2)c(C)c1 (stereo not drawn)	4.4	.	2%	-7.3	-2.1	.	0.72
COc1ccc(NS(=O)(=O)c2cccc(C(=O)NCC3(N4CCCCC4)CCCCC3)c2)cc1	1.4	i	4%	-3.2	5.7	-5.0	0.68
COc1ccc(C(=O)N2CCN(C(=O)C3CCCO3)CC2)cc1[N+](=O)[O-] (stereo not drawn)	2.9	i	.	.	-1.0	-0.7	0.68
Cc1ccc(C)c(NC(=O)C(Sc2cccc[n+]2[O-])c2ccccc2)c1 (stereo not drawn)	2.1	i	25%	0.9	1.1	0.7	0.72
Cc1cnc(-c2nnc(N(C)C(=O)c3cccnc3)s2)cn1	-4.5	.	-5%	-2.5	-3.6	.	0.7
COc1ccc(C2NC(=O)NC(C)=C2C(=O)OCC2CCCCC2)cc1OC (stereo not drawn)	2.5	i	6%	0.1	-3.0	-1.9	0.66
Cc1cccn2c(=O)c(C=C(C#N)C#N)c(N3CCN(C)CC3)nc12	-68	i	.	-49	-5.6	0.3	0.66
COc1ccc(CSc2nncn2C)cc1[N+](=O)[O-]	2.5	.	-1%	1.7	0.0	.	0.68
Cn1nc(-c2ccccc2)cc1NC(=O)[C@@H]1O[C@H](CO)[C@H](O)[C@H](O)[C@H]1O	.	i	.	.	1.3	-4.7	.
CN1C[C@@H](CO)O[C@@H](n2cnc3c(N4CCOCC4)ncnc32)C1	.	i	.	.	4.0	-5.2	.
CCc1nc2ccc(C(=O)NCc3ccc4c(c3)OCO4)cn2c1N(C)C(=O)Cc1ccccc1	.	i	.	.	1.6	-1.2	.
O=S(=O)(c1cc(F)ccc1F)N1CCN(C2CCCCC2)CC1	0.9	i	.	.	-2.5	-4.2	0.67
CC(CCc1ccccc1)NC(=O)CSc1nnnn1C (stereo not drawn)	1.6	i	19%	0.7	-1.1	-0.7	0.66
Cc1ccc(NC(=O)CSCC(=O)Nc2ccccc2N2CCCC2)cc1	6.9	i	-1%	3.7	-2.4	0.2	0.66
CCOc1ccc(S(=O)(=O)NCCSc2ccccc2)cc1	4.9	.	-2%	-0.4	0.3	.	0.69

Profiles from above.
`COc1ccc(NS(=O)(=O)c2cccc(C(=O)NCC3(N4CCCCC4)CCCCC3)c2)cc1` is entered as UCH37 inh: 1.4; FGF22 binding: i; Vif A3G: 4%; RanGTP-Imp inh: -3.2; HNF4A DNA FP: 5.7; MLL AF4-AF9 inh: -5.0; E coli growth: 0.68
`Cc1cnc(-c2nnc(N(C)C(=O)c3cccnc3)s2)cn1` is entered as UCH37 inh: -4.5; FGF22 binding: .; Vif A3G: -5%; RanGTP-Imp inh: -2.5; HNF4A DNA FP: -3.6; MLL AF4-AF9 inh: .; E coli growth: 0.7
`COc1ccc(C(=O)N2CCN(C(=O)C3CCCO3)CC2)cc1[N+](=O)[O-]` (stereo not drawn) is entered as UCH37 inh: 2.9; FGF22 binding: i; Vif A3G: .; RanGTP-Imp inh: .; HNF4A DNA FP: -1.0; MLL AF4-AF9 inh: -0.7; E coli growth: 0.68

More compounds follow:
SMILES	UCH37 inh	FGF22 binding	Vif A3G	RanGTP-Imp inh	HNF4A DNA FP	MLL AF4-AF9 inh	E coli growth
CCCn1c2ccccc2c2nnc(SCC(=O)OC)nc21	4.9	.	-7%	-1.5	0.8	.	0.67
CN(C)CCn1c2c(c(SCC(=O)Nc3cccc4ccccc34)nc1=O)CCCC2	-0.5	i	-8%	0.8	-1.2	-5.8	0.68
Cc1cccc([C@H]2[C@@H]3C=CC[C@@H](C)[C@@H]3C(=O)N2Cc2ccccc2)c1	3.1	i	8%	.	-0.6	8.2	0.7
Cc1ccc(C(=O)Nc2cccnc2)cc1NC(=O)c1ccco1	4.3	.	76%	-6.6	-0.3	.	0.7
COc1ccc(Cl)cc1C(=O)NCC(=O)OCc1ccccc1	-0.3	i	4%	1.7	0.3	0.3	0.61
CCCCOc1ccc(C(=O)NCc2ccncc2)cc1	1.2	.	-5%	-2.2	-0.8	.	0.65
Cc1ccc(CN2CCN(CC(=O)NCc3ccccc3)CC2)cc1	0.0	i	.	0.2	1.1	2.3	0.67
O=C1C(=O)N(CCN2CCCCC2)c2ccccc21	-0.2	.	29%	0.5	-0.6	.	0.72
COc1ccc2[nH]c3c(c2c1)CCN1C(=O)C(CC(=O)NCCC2=CCCCC2)C[C@H](C(=O)N(C(C)C)C(C)C)[C@@]31C (stereo partly drawn)	3.3	i	.	.	0.3	15	0.72
CCn1c(SCC(O)c2ccccc2)nnc1-c1ccccc1 (stereo not drawn)	0.6	.	-2%	0.9	0.9	.	0.67
CC(=O)Nc1ccc(S(=O)(=O)N2CCN=C2SCc2ccc(C)cc2)cc1	5.7	i	16%	-0.6	0.7	1.8	0.7
CCC(NC(=O)Cc1c(C)c2c(cc(C)c3c(C)c(C)oc32)oc1=O)C(=O)O (stereo not drawn)	-221	i	.	0.0	4.3	-0.2	0.68
FC(F)(F)c1cnc(-c2cnc(-c3ccccn3)nc2)c(Cl)c1	2.4	i	5%	6.1	-0.7	2.3	0.69
COc1ccc(C(=O)NC(=S)NNC(=O)c2ccc(O)cc2)cc1[N+](=O)[O-]	9.1	i	.	-0.2	0.2	1.4	0.64
O=C(NCCCC1CCCC1)C1CCC(=O)N(Cc2cccc(F)c2)C1 (stereo not drawn)	2.6	i	.	-1.1	1.6	-12	0.68
CCCOc1cccc(C(=O)Nc2ccccc2C(=O)N2CCN(C)CC2)c1	2.6	i	7%	1.8	0.3	-9.7	0.7
O=C(CNC(=O)c1ccccc1)OCc1cccc(Br)c1	5.9	i	?	-0.1	-3.3	-8.3	0.71
CCNC(=S)Nc1ccc2cn[nH]c2c1	2.3	.	4%	1.1	3.6	.	0.7
COc1ccc(NC(=O)C2Cc3c(-c4cccc(C(N)=O)c4)ccnc3O2)cc1OC (stereo not drawn)	.	i	.	.	1.8	2.1	.
CCOC(=O)C1CCCN(C(=O)c2c(-c3ccccc3)noc2C)CC1 (stereo not drawn)	.	i	.	.	-2.7	0.4	.
COc1cccc(OCC(=O)Nc2cc(Cl)ccc2Oc2ccccc2)c1	1.8	i	-7%	.	1.1	-0.8	0.71
CN(C)S(=O)(=O)c1cccc(NC(=O)c2cccc(S(=O)(=O)N3CCc4ccccc43)c2)c1	1.8	i	-17%	.	-0.3	-2.1	0.68
O=C(Nc1nc(-c2ccccn2)cs1)c1cc2ccccc2o1	-1.8	+	.	-0.4	2.5	?	0.66
C=CCN(c1ccccc1)S(=O)(=O)c1cccc(C(=O)Nc2ncccc2O)c1	2.3	.	8%	?	-1.8	.	0.72
Cc1cc(NC(=O)c2cc([N+](=O)[O-])cc([N+](=O)[O-])c2)no1	5.9	i	7%	?	0.9	1.6	0.62
Cc1ccccc1NS(=O)(=O)CCCCC(Cl)(Cl)Cl	2.9	.	-4%	-5.2	3.1	-0.4	0.72
Cn1c(=O)c2c([nH]c(=O)n2C)n(Cc2ccccc2)c1=O	5.5	.	.	-2.0	1.1	-0.1	0.62
COc1cc(/C=N/NC2=NS(=O)(=O)c3ccccc32)cc(OC)c1OC	.	i	-5%	-1.8	2.6	-3.0	.
O=C(COC(=O)c1ccccn1)Nc1ccccc1Cl	2.9	.	6%	8.2	-4.1	.	0.75
Cc1nnc(SCc2nnc(-c3ccccc3Br)o2)s1	1.8	i	2%	-1.4	1.0	-1.3	0.72
CC(C)c1nc2oc3c(NCC4CCCO4)ncnc3c2c2c1COC(C)(C)C2 (stereo not drawn)	-73	.	3%	-3.5	-0.9	.	0.65
Nc1sc(-c2ccccc2)cc1C(=O)N1CCN(c2ccccc2)CC1	.	i	.	.	-1.4	-3.8	.
CCCc1[nH]nc2c1C(c1ccc(OCCN3CCOCC3)c(OCC)c1)C(C#N)=C(N)O2 (stereo not drawn)	-1.6	.	-6%	-0.8	-2.0	.	0.7
COc1ccc(CNC(=O)COC(=O)c2ccc(Br)c(S(=O)(=O)N3CCOCC3)c2)cc1	-1.7	i	.	.	-0.2	0.2	0.72
Cc1ccc(SCC(=O)OCC(=O)N(C)CC(=O)Nc2ccc(F)cc2)cc1C	-1.5	i	5%	-1.3	0.0	1.9	0.72
O=C(NCCc1ccccc1)c1cccc([N+](=O)[O-])c1	7.0	i	-2%	-2.6	2.7	2.2	0.68
CCOc1ccc(S(=O)(=O)N2CCCC(C(=O)NCc3ccccc3)C2)cc1 (stereo not drawn)	-0.8	i	3%	1.7	4.0	-2.5	0.7
Cc1ccc(S(=O)(=O)CC(C)N2CCOCC2)c(S(=O)(=O)CC(C)N2CCOCC2)c1 (stereo not drawn)	4.6	.	1%	-0.9	2.7	.	0.66
CC(CN1CCCCC1)OC(=O)c1cc2ccccc2o1 (stereo not drawn)	1.1	.	?	-3.8	-2.9	.	0.73
NS(=O)(=O)c1ccc(NC(=O)c2ccc(Cl)c(S(=O)(=O)NCc3ccco3)c2)cc1	1.2	i	.	.	3.7	4.0	0.68
CCN(CC)c1nc(N)c2c(N)nc(OC)cc2c1C#N	-23	i	.	4.0	20	-5.8	0.63
CC(=O)N(CCCN(C)C)c1nc2ccc(C)cc2s1	5.4	i	9%	-3.2	5.1	-11	0.66
CN(C1CCCCC1)S(=O)(=O)c1ccc(NC(=O)c2ccc(Br)o2)cc1	-0.1	.	4%&0%	0.0	-1.2	.	0.74

These rows are one share of the data; count on the stated rates, not on these rows.
